# High-throughput results: PubChem BioAssay, National Center for Advancing Translational Sciences (NCATS)
# VDR inhibitor = blocks the human vitamin D receptor | P11473 | VDR-SRC2-3 peptide fluorescence polarization, 2 h | Potency, µM, inactives show max response, negative = inhibition, usual class: inhibitors | 0.93% of 400,000 active; active = well fitted inhibition curve with a large enough effect; inconclusive = small, poorly fitted or top-dose-only effect, or another doubt; inactive = no such curve, though single readings can be large or run the other way; note: series mostly up to about 120 µM
# Target sequence (P11473 whole entry, looked up): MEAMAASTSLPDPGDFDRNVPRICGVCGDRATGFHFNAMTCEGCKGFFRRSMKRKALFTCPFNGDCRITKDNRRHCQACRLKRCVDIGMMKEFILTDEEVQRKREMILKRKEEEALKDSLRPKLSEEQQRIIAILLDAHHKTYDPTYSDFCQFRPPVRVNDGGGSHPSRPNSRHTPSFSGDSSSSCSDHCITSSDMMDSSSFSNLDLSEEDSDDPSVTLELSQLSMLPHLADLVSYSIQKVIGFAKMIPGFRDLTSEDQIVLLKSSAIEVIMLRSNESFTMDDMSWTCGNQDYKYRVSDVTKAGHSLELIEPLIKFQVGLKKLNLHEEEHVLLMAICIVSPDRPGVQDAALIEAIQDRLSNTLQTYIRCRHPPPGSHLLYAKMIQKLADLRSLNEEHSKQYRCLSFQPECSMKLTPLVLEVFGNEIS
#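 The screen uses fluorescence polarization to detect compounds that interfere with recruitment of the SRC2-3 coactivator peptide to VDR; plates are read after 2 h at room temperature.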
# * marks the source's active call; other numbers are inactive results; ? = inconclusive; & = joins results of further samples; [ ] = dose if it differs, or a comment. % is set by controls: 0 for no effect and ±100 for the full control effect; potency is the fitted concentration of half-maximal effect. Not all compounds are listed, so the mix of outcomes need not match the whole.
SMILES,VDR inhibitor
CCOC(=O)c1cc([N+](=O)[O-])c([N+](=O)[O-])cc1NC(C)=O,?
O=C(COc1ccc(S(=O)(=O)NC2CCCCC2)cc1Cl)NCC1CCCO1 (stereo not drawn),9.1%
OC(c1ccccc1)(c1ccccc1)c1nccn1-c1ccccc1,-13.1%
COc1ccc(OC)c(NC(=O)N2CCCC(C)C2)c1 (stereo not drawn),-19.3%
COc1cc2[nH]c(=O)n(CCCC(=O)N(C)Cc3ccccc3)c(=O)c2cc1OC,3.1%
CCC1=Nc2cc(C(=O)O)ccc2Sc2ccccc21,-2.3%
O=C1c2ccccc2C(=O)c2c1cccc2N(CCO)CCO,-2.3%
CCn1nc(NS(=O)(=O)c2ccc(F)cc2)c2cc3cccc(C)c3nc21,-15.1%
Cc1ccc(C)c(NC(=O)N(C)CCc2c(C)nn(C)c2C)c1,3.6%
CC(NC(=O)c1ccccc1NC(=O)c1ccncc1)c1ccccc1 (stereo not drawn),5.9%
Cc1onc(-c2c(F)cccc2Cl)c1C(=O)N(C)C1CCCCC1,3.1%
O=c1oc2ccccc2cc1-c1nc2c(s1)CCc1ccccc1-2,-11.1%&5.2%
COc1cc(OC)cc(-c2c(C#Cc3ccsc3)c3cc(-c4ccccc4OC)ccc3n2C)c1,16.5%
Cc1c(C(=O)O)sc2nc3n(c(=O)c12)CCC(C)CC3 (stereo not drawn),10.1%
Cc1cc(CNC(=O)COc2ccc(F)cc2F)c2ccccc2n1,-12.8%
COc1ccc(S(=O)(=O)N2CCOCC2)cc1NC(=O)c1cc2ccccc2o1,-1.0%
C=CCN(CC=C)S(=O)(=O)c1ccc(NC(=S)NC(=O)c2ccc(-c3ccccc3)cc2)cc1,14.5%
CC(=O)N/C(=C\c1ccc(F)cc1)C(=O)N(C)C,-8.7%
CCOc1ccc(C(NC(C)=O)c2ccc(OC)c(OC)c2)cc1 (stereo not drawn),-14.3%
O=C(COC(=O)COc1ccc(Cl)cc1)Nc1ccc2c(c1)OCCO2,27.1%
Cc1c(NC(=O)c2cccs2)cccc1-c1nc2cc(Cl)ccc2o1,3.3%
COc1ccccc1OC(C)C(=O)Nc1cccc(-c2nc3ccccc3o2)c1 (stereo not drawn),-5.1%
CCCCOc1ccc(CNC(=O)c2ccc(-c3nc(CN4CCc5ccccc54)c(C)o3)cc2)cc1,9.8%
O=C(Nc1cccc(F)c1)N1C2CCC1CC(O)(c1cccnc1)C2 (stereo not drawn),3.3%
CC(C)C[C@@H](CNC(=O)OC(C)(C)C)NC(=O)c1nc[nH]c1C(=O)N[C@@H](CC(C)C)C(=O)CNC[C@H](CC(C)C)NC(=O)c1nc[nH]c1C(=O)N[C@@H](Cc1c[nH]c2ccccc12)C(=O)OC(C)(C)C,3.7%
O=C(CN1CCN(CC(=O)Nc2ccc3c(c2)OCO3)CC1)Nc1ccc(F)cc1,-10.5%
COc1ccccc1CNC(=O)c1c(O)nc2cc(C)ccn2c1=O,-11.9%
O=C(Cc1ccc(F)cc1)Nc1ccccc1Sc1ccccc1,-11.3%
COc1cc(C)c(Br)cc1S(=O)(=O)NCc1cccs1,-7.0%
COc1ccccc1NS(=O)(=O)c1ccc(N/N=C/c2c(C)nn(-c3ccccc3)c2N2CCCC2)c([N+](=O)[O-])c1,9.1%
CC1=C(C(=O)Nc2ccccc2)C(c2ccccn2)n2nc(CCCO)nc2N1 (stereo not drawn),1.0%
Cc1cc(C)cc(NC(=O)C2CCN(S(=O)(=O)c3ccc4c(c3)oc(=O)n4C)CC2)c1,-6.1%
COc1ccccc1N1CC(C(=O)OCc2nc(N)nc(Nc3ccccc3)n2)CC1=O (stereo not drawn),-10.8%
Cc1ccc(CNC(=O)CCCN2C(=S)NC(C)(C)CC2C)cc1 (stereo not drawn),-10.8%
CCCN1C(=O)/C(=N\OCC(=O)Nc2ccc(C(C)C)cc2)c2ccccc21,-9.7%
CN(C(=O)COc1ccc(Oc2ccccc2)cc1)C1CCS(=O)(=O)C1 (stereo not drawn),9.0%
O=C(CCCN1Cc2ccccc2C1)c1ccc(F)cc1,-0.6%
O=C(Nc1ccc2oc(-c3ccncc3)nc2c1)c1cccs1,-12.0%
Clc1ccccc1/C=N/Nc1cc(N2CCOCC2)ncn1,18.1%
Cn1c(CNC(=O)C(Cc2ccccc2)NC(=O)c2ccccc2F)cc(=O)n(C)c1=O (stereo not drawn),-13.6%
C[C@]12CC[C@H]3c4ccc(O)cc4CC[C@@H]3[C@H]1CC[C@@H]2OC(=O)CCC1CCCC1,9.0%
Cc1cc(NC(=S)N(CCN2CCCCC2)Cc2ccco2)ccc1Cl,-0.6%
CCCCn1c(N)c(N(CC)C(=O)C2COc3ccccc3O2)c(=O)[nH]c1=O (stereo not drawn),-18.1%
CC(=O)c1ccc(OCc2cc(C(=O)NCCn3nc(C)cc3C)no2)cc1,18.5%
O=C(c1ccccc1)c1cn(Cc2ccc(F)cc2)c2ccccc2c1=O,-7.4%

# Given with bars between the fields: seven of the compounds above
SMILES | VDR inhibitor
Clc1ccccc1/C=N/Nc1cc(N2CCOCC2)ncn1 | 18.1%
Cn1c(CNC(=O)C(Cc2ccccc2)NC(=O)c2ccccc2F)cc(=O)n(C)c1=O (stereo not drawn) | -13.6%
C[C@]12CC[C@H]3c4ccc(O)cc4CC[C@@H]3[C@H]1CC[C@@H]2OC(=O)CCC1CCCC1 | 9.0%
Cc1cc(NC(=S)N(CCN2CCCCC2)Cc2ccco2)ccc1Cl | -0.6%
CCCCn1c(N)c(N(CC)C(=O)C2COc3ccccc3O2)c(=O)[nH]c1=O (stereo not drawn) | -18.1%
CC(=O)c1ccc(OCc2cc(C(=O)NCCn3nc(C)cc3C)no2)cc1 | 18.5%
O=C(c1ccccc1)c1cn(Cc2ccc(F)cc2)c2ccccc2c1=O | -7.4%

# Continuation.
SMILES,VDR inhibitor
COc1cc(/C=C/C(=O)NCCN2CCOCC2)cc(OC)c1OC,-8.0%
O=C1Nc2cc(Cl)ccc2Oc2cc(Oc3ccccc3)ccc21,-5.1%
COc1ccc(C(C)C)cc1S(=O)(=O)n1ccnc1C,1.3%
O=C(NC(c1ccccc1)c1ccccc1)c1ccccc1,23.8%
COc1ccc(NC(=O)c2c(NCc3ccc(C)o3)sc3c2CCCCC3)c(OC)c1,2.3%
COc1ccccc1C=NNc1ccc([N+](=O)[O-])cn1,9.6%
CCOC(=O)N1CCN(C(=O)c2ccc3c(c2)NC(=O)/C(=C/c2ccccc2)S3)CC1,-24.1%
Cc1cccc(C)c1NC(=O)NNC(=O)c1cc(C(C)(C)C)nn1Cc1ccccc1,1.9%
Cc1cccc(/C=c2\s/c(=C\C(=O)C(C)(C)C)[nH]c2=O)c1,4.8%
O=C(OCc1ccccc1)c1ccc(NCc2cc(O)ccc2O)cc1,-21.5%
COc1ccc(-c2nn(-c3ccccc3)cc2/C=C/C(=O)O)cc1[N+](=O)[O-],-18.0%
O=C(NCc1ccco1)c1cccc(NC(=O)c2ccco2)c1,-2.3%
CSc1ccc(S(=O)(=O)N2CCC(C(=O)NCCCn3ccnc3)CC2)cc1,-11.8%
COC(=O)c1cc(NC(=O)COC(=O)CCc2c[nH]c3ccccc23)cc(C(=O)OC)c1,-12.7%
CC(N)COC(=O)C(CCCCN)NC(=O)Cc1c(-c2ccc3ccccc3c2)[nH]c2c1ccc1ccccc12 (stereo not drawn),-11.5%
CC(C)(C)n1nc2c(c1NC(=O)Cc1ccc(F)cc1)CS(=O)(=O)C2,-5.0%
Cn1cc(CN2CCC(n3nccc3NC(=O)Cc3ccccc3)CC2)cn1,-8.1%
COc1cccc(Nc2ncc3nc(C)c(=O)n(CCC#N)c3n2)c1,2.2%
c1cncc(-c2nn[nH]n2)c1,-9.7%
O=C1C2CCCCN2C(=O)N1CCCCN1CCN(c2ccccc2Oc2ccccc2)CC1 (stereo not drawn),1.2%
Cc1ccc(NC(=O)CSc2nc(=O)n(Cc3ccccn3)c3c2CCC3)cc1F,11.7%
Cc1cccc(NC(=O)c2cccc(N3C(=O)CCC3=O)c2)c1,14.4%
COc1cc(/C=C2\SC(=Nc3cccnc3)NC2=O)cc(OC)c1OC,-8.5%
O=C(c1cccs1)c1cn(CCOc2ccc(Cl)cc2)c2ccccc12,10.8%
COC(=O)[C@H](Cc1ccc(O)cc1)NC(=O)Cn1ccc(NC(=O)OCc2ccccc2)nc1=O,-10.1%
COc1cc(OC)cc(C(=O)NNC(=O)Cc2cccs2)c1,-11.1%
COc1cccc(/C(O)=C2/C(=O)C(=O)N(CCN(C)C)C2c2ccccn2)c1 (stereo not drawn),-14.3%
OC(CN1CCc2ccccc2C1)c1ccccc1 (stereo not drawn),?
COc1ccccc1C1CCN(Cc2ccc3ccccc3c2)CC1,-14.6%
O=C(O)COCC(=O)N1CCCN(c2ccc(C(F)(F)F)cn2)CC1,4.8%
CCOc1ccc(CNCc2ccccc2Cl)cc1,12.8%
COC(=O)c1cc([N+](=O)[O-])c(-n2ccnc2)c([N+](=O)[O-])c1,?
O=C(c1cn(-c2ccccc2)nc1-c1cccnc1)N1CCCC(C(F)(F)F)C1 (stereo not drawn),-11.3%
CC12C=C(/C=C/CCc3ccco3)C(C)(C1)[C@H](CCc1ccco1)CC2=O (stereo partly drawn),?
COc1ccc(N2CCN(C(=O)c3cc4c(=O)n(Cc5cccnc5)ccc4nc3C)CC2)cc1,2.4%
O=C(Cn1c(COc2ccccc2)nc2ccccc21)Nc1cccc(Cl)c1,5.7%
CC(C)Cc1nc(N2CCN(C(=O)c3ccco3)CC2)c(C#N)c2c1CCC2,-17.5%
CCCCn1c(N)c(N(CCOC)C(=O)COC(=O)CCOc2ccccc2)c(=O)[nH]c1=O,-9.2%
Cc1ccccc1Nc1nc(N)nc(COC(=O)/C=C/c2ccco2)n1,7.5%
CC(C)(C)C(=O)OCc1cc(=O)n2nc(C3CCCCC3)sc2n1,-3.8%
COc1ccccc1-c1sc2ccccc2c1-c1ccc(C(C)=O)cc1,-19.0%
CN1CCN(S(=O)(=O)c2cccc(S(=O)(=O)c3ccc(Cl)cc3)c2)CC1,8.0%
O=S(=O)(NC1CCCCC1)c1ccc(N2CCOCC2)nc1,-9.6%
CC(=O)c1cccc(CN2CCC(n3nccc3NC(=O)CCOc3ccccc3)CC2)c1,-11.1%
COc1cc(C2/C(=C(\O)c3ccc4c(c3)CC(C)O4)C(=O)C(=O)N2c2nnc(C)s2)cc(OC)c1OC (stereo not drawn),?
Cc1ccccc1-c1nc2cc(Cl)ccc2c(=O)o1,0.2%
CCOc1ccc(CNC(=O)c2cnc3sc(N4CCC(C)CC4)nn3c2=O)cc1OC,-2.0%
CCCCC(Br)C(=O)Nc1ccc(S(=O)(=O)Nc2cc(C)nc(C)n2)cc1 (stereo not drawn),10.1%
CC1CCN(C(=O)c2ccc(S(=O)(=O)N3CCCC3)cc2)CC1,-4.8%
Cc1c(C(=O)O)oc2ccc(S(=O)(=O)N3CC(C)CC(C)C3)cc12 (stereo not drawn),111.3%[activator]
CCOc1c(Br)cc(C2CC(=O)Nc3cc(OC)c(OC)cc32)cc1OC (stereo not drawn),-6.6%
Clc1ccccc1Nc1ncnc2c1nc1n2CCCCC1,2.8%
COCC1CCN(C(=O)c2ccc3oc(CCCc4ccccc4)nc3c2)C1 (stereo not drawn),-17.7%
COc1cc(CCC(=O)Nc2ccc(S(=O)(=O)N3CCCC3)cc2)cc(OC)c1OC,-2.4%
Cc1cc(=O)n2nc(N3CCCC(C(=O)NCc4ccccc4C)C3)sc2n1 (stereo not drawn),-1.2%
COc1ccc(NC(=O)c2ccccc2N(Cc2ccccc2)S(C)(=O)=O)cc1,-5.7%
COCCN1CCCC(CNCc2cn(C)nc2-c2ccc(Oc3ccccc3)cc2)C1 (stereo not drawn),-14.3%
CC(C)(C)OC(=O)CNC(=O)c1nc[nH]c1C(=O)N1CCNCC1,-24.2%
O=C(Nc1nccs1)C(=O)c1c[nH]c2ccccc12,25.3%
Cc1sc2nc(CN3CCOCC3)[nH]c(=S)c2c1C,3.0%

# Some of these compounds in order of SMILES length, low to high.
SMILES,VDR inhibitor
Cc1cc(CNC(=O)COc2ccc(F)cc2F)c2ccccc2n1,-12.8%
CCn1nc(NS(=O)(=O)c2ccc(F)cc2)c2cc3cccc(C)c3nc21,-15.1%
CC(C)Cc1nc(N2CCN(C(=O)c3ccco3)CC2)c(C#N)c2c1CCC2,-17.5%
CCCCn1c(N)c(N(CCOC)C(=O)COC(=O)CCOc2ccccc2)c(=O)[nH]c1=O,-9.2%
COc1ccccc1NS(=O)(=O)c1ccc(N/N=C/c2c(C)nn(-c3ccccc3)c2N2CCCC2)c([N+](=O)[O-])c1,9.1%

# (more compounds)
SMILES,VDR inhibitor
CCOc1cc(C2c3c(oc4ccccc4c3=O)C(=O)N2Cc2ccccc2Cl)ccc1O (stereo not drawn),0.8%
COc1ccc2nc(SC(C)C(=O)NC3(C#N)CCCCC3)[nH]c2c1 (stereo not drawn),-10.2%
Cc1oc(C(C)(C)C)cc1C(=O)N1CCN(c2ncccc2C(F)(F)F)CC1,-19.4%
CCOc1ccc(NC(=O)CSc2nnc(C)n2C2CC2)cc1S(=O)(=O)N1CCCC1,-4.4%
Cc1ccc(-c2cc(-c3ccc4c(c3)NC(=O)CO4)nc3c2COc2ccccc2-3)cc1,2.7%
COCCN1C(=O)N[C@@H](c2ccccc2)[C@@H](C(=O)OC)[C@H]1C,-2.4%
Cc1cccc(OCc2nnc(SCC(=O)OC3CCCCC3)o2)c1,-2.9%
CCCCN(C)C(=O)C1CCCN(S(=O)(=O)c2ccc3c(c2)CC(C)N3C(=O)C2CC2)C1 (stereo not drawn),-3.5%
O=C(CSc1nc2[nH]ncc2c(=O)n1-c1ccccc1)c1ccc2c(c1)OCCO2,11.3%
CCCCN(CC)CCCn1cnc2c([nH]c3ccc(Cl)cc32)c1=O,1.8%
